miR-21 FLuc: miR-21 reporter, rising signal; Potency, µM (doses to about 38.3 µM), for the others: at the top dose reporter change, positive = more light; HeLa miR-21 FLuc reporter, luciferase, 48 h; 340,000 tested, under 10 active; AID 2288; active = well fitted rising curve with a large enough effect; inconclusive = small, poorly fitted or top-dose-only effect; inactive = no such curve, though single readings can be large or run the other way;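 also: % of control where 0% means no effect; miR-21 action dims this reporter so a rising signal means less miR-21 action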
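HeLa cells endogenously expressing miR-21, stably carrying CMV-driven firefly luciferase with a downstream miR-21 binding site, 2000 cells/well. Titrations up to approximately 40 uM, 48 hours; luciferase luminescence read.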
Rango release inh: inhibitors of RanGTP-induced Rango-importin beta complex dissociation. 340,000 tested, 0.071% active. AID 540253. Biochemical FRET Rango-importin beta, RanGTP-induced dissociation. Potency, µM (titrated, usually from 46.1 µM), for the others: top-dose activity change, negative = inhibition; active means falling FRET ratio curve, often poorly fitted, with flat reads before Ran was added; inconclusive means other falling curves, or compound fluorescence or quenching; inactive means flat or rising ratio curve;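 also: potency is read from the fitted curve at half-maximal effect; % of control where 0% means no effect; nearly all actives have a fitted effect of over 45% in size; -100% = wells without RanGTP and RCC1; the record marks most hits as doubtful in a second field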
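Compounds sat 5 min at room temperature with 0.1 uM Rango biosensor plus 0.25 uM importin beta, then FRET pre-read. RanGTP-RCC1 (0.6 uM Ran, 2mM GTP, 0.2 uM RCC1) added for 45 min, and the CFP/YFP post-read measured blocked complex dissociation.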
Rango-impB inh: Rango-importin beta binding inhibition. Q14974. Rango CFP/YFP FRET sensor + importin beta, 45 min. Potency, µM (highest dose often 92.2 µM), for inactives: at the highest dose inhibition of complex formation. 340,000 tested, 0.031% active. AID 540263; active = rising FRET ratio curve, often small or poorly fitted; inconclusive = mostly compound fluorescence or quenching in the first reads; inactive = flat curves in all reads;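 also: potency is read from the fitted curve at half-maximal effect; 0% = DMSO wells and 100% = buffer wells lacking importin beta; nearly all actives have a fitted effect of over 15% in size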
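FRET biosensor Rango (snurportin 1 IBB between N-terminal EYFP and C-terminal Cerulean), 50 nM in PBS/1 mM DTT/0.02% Tween-20/0.1% BSA, preincubated 5 min RT with compound; 0.125 microM importin beta added, 45 min RT, CFP/YFP FRET ratio read.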
GLA inh pH 4.5: blocks human alpha-galactosidase A at pH 4.5 | AID 1467 | 230,000 tested, under 10 active | P06280 | purified enzyme, 4-MU-alpha-Gal fluorescence, pH 4.5 | activity change, negative = inhibition, % at 105 µM; inconclusive = small, poorly fitted or top-dose-only inhibition, or a rising curve; inactive = flat fitted curve, though single readings scatter; no compound was filed as active;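 also: 0% = full activity with enzyme and -100% = basal without enzyme; dose as in the result columns while the protocol names 77 µM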
Target sequence (P06280 whole entry, looked up): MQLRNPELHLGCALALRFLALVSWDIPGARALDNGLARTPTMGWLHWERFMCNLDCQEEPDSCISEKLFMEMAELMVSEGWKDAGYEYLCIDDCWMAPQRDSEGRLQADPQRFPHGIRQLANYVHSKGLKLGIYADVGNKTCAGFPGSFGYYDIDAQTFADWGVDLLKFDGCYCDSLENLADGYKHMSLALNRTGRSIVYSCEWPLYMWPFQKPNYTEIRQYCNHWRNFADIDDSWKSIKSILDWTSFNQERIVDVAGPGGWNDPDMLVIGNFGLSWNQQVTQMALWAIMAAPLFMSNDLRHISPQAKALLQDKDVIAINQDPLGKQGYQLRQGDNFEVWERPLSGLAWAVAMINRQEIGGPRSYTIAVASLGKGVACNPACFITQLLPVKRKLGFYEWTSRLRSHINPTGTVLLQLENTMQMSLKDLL
* marks the source's active call; other numbers are inactive results; u = inconclusive; x = not tested or not shown; & = joins results of further samples. An excerpt. The share of hits here may be higher or lower than overall.

SMILES	miR-21 FLuc	Rango release inh	Rango-impB inh	GLA inh pH 4.5
Cc1cccc(N/N=C(\C(N)=O)C2=NC(C)(C)Cc3ccccc32)c1	25.7%	6.1%	3.8%	-10.3
CCN(C(=O)COC(=O)CCCOc1ccccc1)c1c(N)n(Cc2ccccc2)c(=O)[nH]c1=O	x	-5.6%	0.9%	x
O=C(NCCc1ccccc1)c1cccc(N2C(=O)C3CC=CCC3C2=O)c1 (stereo unspecified)	-8.6%	3.9%	-1.3%	2.3
O=C(Nc1ccc(Br)c(Cl)c1)C1CC1	-0.4%	0.8%	-2.0%	0.0
CCN(c1ccccc1C)S(=O)(=O)c1nnc(NC(=O)c2ccco2)s1	-7.7%&-26.3%	-16.5%	-1.2%	x
CCOc1ccc(NC(=S)N2CCC(N(C)CC3CCCO3)CC2)cc1 (stereo unspecified)	-7.2%	-8.0%	-1.5%	3.2
CCCCC1CC(CSC(=N)N)OC1=O (stereo unspecified)	4.5%	-4.6%	0.4%	8.0
N#CC1=CC2CN(Cc3ccccc3)C1C1C(=O)N(c3ccccc3)C(=O)C21 (stereo unspecified)	x	-0.1%	3.0%	x
Cn1c(-c2sccc2OCc2ccc(Cl)cc2Cl)n[nH]c1=S	-0.1%	14.7%	0.0%	3.2
COc1ccc(C(=O)NCc2nnc(SCC(=O)Nc3nc4ccccc4s3)o2)cc1OC	-20.4%	4.4%	0.0%	-5.5
CC(C)CNS(=O)(=O)c1ccc(CCC(=O)NCc2ccco2)cc1	-1.5%	-22.4%	-0.1%	-5.2
CCC[N+](CC#Cc1ccccc1)(CCC)CC(=O)OCC	-1.6%	-8.8%	5.2%	-7.1
O=[N+]([O-])c1cccc(C(=Nc2cccc(Cl)c2)NO)c1	-4.9%	9.4%	2.8%	-0.4
COCCn1c(SCC(=O)NCc2ccc3c(c2)OCO3)nnc1C(C)C	-3.2%	-1.9%	1.5%	x
Cc1ccccc1Cn1nc(C)c(NC(=O)c2cc3nc(-c4ccco4)cc(C(F)(F)F)n3n2)c1C	6.1%	u	u	-7.7
CC(C)c1ccc(-c2cc(C(=O)N3N=C(C(F)F)CC3(O)C(F)F)c3ccccc3n2)cc1 (stereo unspecified)	14.1%	25.1%	u	6.0
O=C(NNc1c(Cl)cccc1Cl)c1cccs1	-1.3%	-3.4%	0.2%	-1.6
O=C(CCCn1c(=S)[nH]c2ccccc2c1=O)NC1CCCC1	-2.7%	-7.3%	3.4%	-11.4
COc1cccc(N2C(=O)C(CC(=O)Nc3ccccc3)N(C3CCCCC3)C2=O)c1 (stereo unspecified)	-1.0%	0.0%	-0.1%	1.6
Cc1ccc(-c2nnc(SCC(=O)NNC(=O)COc3cccc4ccccc34)n2C)cc1	-9.2%	x	x	2.3
O=C(O)COc1ccccc1-c1ccccc1	0.3%	8.4%	-1.1%	-1.2
COc1ccc(NC(=O)CC2C(=O)N(c3ccc(F)cc3)C(=S)N2NC(=O)c2ccc(Cl)cc2)cc1 (stereo unspecified)	-29.8%	-10.0%	4.8%	-2.2
CCCCn1c(N)c(N(CC)C(=O)C(c2ccccc2)c2ccccc2)c(=O)[nH]c1=O	-0.9%	-13.3%	0.4%	5.7
CC(C)(C)OC(=O)C[C@@H]1C/C=C\C[C@H](CC(=O)NCCO)C(=O)N2CCC[C@H]2COC1=O	x	13.9%	-1.1%	x
CCOC(=O)C1CCCN(Cc2cc(=O)oc3cc(C)c(C(C)C)cc23)C1 (stereo unspecified)	-8.4%	-3.8%	-0.1%	-5.4
CCn1c(SCC(=O)Nc2ccc3c(c2)OCCO3)nc2c(c1=O)SC(C)C2 (stereo unspecified)	-1.3%	-7.5%	-3.9%	-18.9
CN(C)CCOc1cc(Cl)cc(Cl)c1	-0.8%	0.0%	0.1%	8.4
Cc1ccc(CNC(=O)CSc2nccn(-c3ccc(C)c(F)c3)c2=O)cc1	x	21.5%	-4.5%	x
COc1ccc(C(CNC(=O)c2ccc(NS(=O)(=O)c3cccc([N+](=O)[O-])c3)cc2)N2CCOCC2)cc1 (stereo unspecified)	1.3%	10.7%	-1.7%	x
O=C(NCc1cccnc1)C(=O)NCC1OCCN1S(=O)(=O)c1ccc(Cl)cc1 (stereo unspecified)	-5.0%	4.9%	0.7%	-1.4
Cc1ccccc1Cn1nc(C)c(NC(=O)c2noc3c2CCCC3)c1C	12.3%	5.6%	2.4%	-13.5
Cc1ccc(Cn2c(SCC(=O)NCC3CCCO3)nc3c(sc4ccccc43)c2=O)cc1 (stereo unspecified)	-0.5%	5.0%	0.9%	9.4
CCn1nc(C(=O)NCC2COc3ccccc3O2)c2ccccc2c1=O (stereo unspecified)	x	15.5%	4.7%	x
COc1ccc(NC(=O)c2cc(S(=O)(=O)N3CCOCC3)cn2C)c(OC)c1	-0.8%	-3.2%	0.9%	x
Cc1ccc(CNc2nc3ccccc3s2)s1	20.2%	-4.9%	-1.2%	-5.6
CCc1ccc(-c2cc(C)no2)cc1S(=O)(=O)NCCCN1CCN(c2ccccc2)CC1	u	9.7%	2.9%	x
O=C(O)CSC1=NC(=Nc2cccc(Cl)c2)C2(CCCCC2)N1c1ccccc1	-0.7%	-2.0%	1.0%	-1.0
N#Cc1cnc2ncnn2c1-c1ccccc1	-2.1%	-11.8%	5.7%	-16.3
Cc1cc(C(=O)NC2CC(C)(C)Cc3c2cnn3-c2ccc(F)cc2)no1 (stereo unspecified)	-28.0%	-10.2%	-2.9%	x
O=C(CN1CCCc2ccccc21)NCc1ccc2c(c1)OCO2	-23.6%	13.6%	3.9%	-4.5
Cn1cc(S(=O)(=O)CC(=O)Nc2ccc3c(c2)OCO3)c2ccccc21	-9.8%	0.5%	-3.1%	-15.9
Cc1ccc(O)c(N/C=C/C(=O)c2ccc(F)cc2)c1	-56.7%	u	u	x
CCOC(=O)c1c(S(=O)(=O)N(C)Cc2ccco2)c(C)n(C)c1C	-5.5%	-6.5%	-0.6%	x
COc1ccccc1/C=N/NC(=O)c1cccc(NC(=O)c2ccccc2Cl)c1	3.8%	11.7%	0.6%	5.0
Cc1ccc(Cn2c(C(C)Nc3nc(-c4ccc(Cl)cc4)cs3)nc3cc(C(=O)NCCCO)ccc32)cc1 (stereo unspecified)	x	14.5%	u	x
CN(C)c1ccnc(Oc2ccccc2)c1C#N	-18.6%	12.1%	-4.4%	-1.1
Cc1ccc(S(=O)(=O)N2CCN(C(=O)COC(=O)COc3cccc4c3OC(C)(C)C4)CC2)cc1	x	13.8%	-1.3%	x
O=C(CC1C(=O)NCCN1C(=S)Nc1ccccc1)Nc1ccc(F)cc1 (stereo unspecified)	0.9%	1.8%	0.5%	-14.5
CC1(c2cccc(Br)c2)NC(=O)N(CC(=O)Nc2ccc(F)cc2)C1=O (stereo unspecified)	8.1%	-1.0%	0.7%	x
COc1ccc(Br)cc1CN1CCN(C(=O)c2cccc(F)c2)CC1	-3.5%	24.9%	0.6%	x

Additional compounds follow:
SMILES	miR-21 FLuc	Rango release inh	Rango-impB inh	GLA inh pH 4.5
CCCn1c(SCC(=O)N2CCCC2)nc2c1c(=O)n(C)c(=O)n2C	-10.9%	-9.4%	-0.7%	-6.5
O=C(c1ccc(S(=O)(=O)N2CCOCC2)cc1)N1CCN(c2ccccc2)CC1	-2.7%	4.5%	0.8%	2.3
Cc1ccc(NC(=O)CN(C)CC(=O)Nc2ccc(F)c(F)c2F)c(Cl)c1	2.4%	-2.8%	6.8%	-0.2
CCn1c(C)c(/C=N/Nc2nc3ccccc3s2)c2ccccc21	-8.9%	-19.8%	-4.0%	5.4
Cc1ccc(S(=O)(=O)N2CCCCC2)cc1C(=O)Nc1ccc(N2CCOCC2)cc1	-5.5%	-12.3%	u	-5.3
C=CCn1c(=O)c(C(=O)Nc2ccccc2O)c(O)c2ccccc21	-13.1%	1.8%	0.8%	9.5
O=C(COc1ccccc1[N+](=O)[O-])OCC(=O)N1CCC(Cc2ccccc2)CC1	7.3%	13.6%	-3.6%	-0.8
CC[n+]1c(/C=C/C=C/N(C(C)=O)c2ccccc2)sc2ccccc21	-8.3%	u	u	5.0
CCOC(=O)Cn1nc(-c2ccc(C)cc2)ccc1=O	-33.0%	-7.1%	5.3%	-8.2
CC(=O)Nc1ccc(S(=O)(=O)NC(CSc2ccc(C(=O)O)cc2[N+](=O)[O-])C(=O)O)cc1 (stereo unspecified)	-0.3%	-6.2%	-1.0%	x

An excerpt from above with just GLA inh pH 4.5.
canonical_smiles	GLA inh pH 4.5
O=C(O)COc1ccccc1-c1ccccc1	-1.2
COc1ccc(NC(=O)CC2C(=O)N(c3ccc(F)cc3)C(=S)N2NC(=O)c2ccc(Cl)cc2)cc1 (stereo unspecified)	-2.2

Remaining list, next part
SMILES	miR-21 FLuc	Rango release inh	Rango-impB inh	GLA inh pH 4.5
c1nc2sc3c(c2c2nnnn12)CCCC3	10.9%	1.4%	-4.6%	-11.7
Cc1ccc(C2C(=O)N(C3CCCC3)CC(=O)N2C2CCCCC2)cc1 (stereo unspecified)	0.2%	6.4%	2.7%	1.9
CCCCC(CC)C(=O)Nc1ncc([N+](=O)[O-])s1 (stereo unspecified)	-1.8%	-11.6%	0.5%	-1.3
CNC(=O)N(O)C1N(/N=C/c2ccccc2OC)C(=S)SC1(C)C (stereo unspecified)	-4.5%	2.7%	0.0%	x
COC(=O)Oc1ccc(/C=N/NC(=O)CSCc2ccc(Cl)cc2)cc1OC	3.1%	-12.2%	0.5%	0.2
O=C1N/C(=C\c2ccccc2)C(O)=C1C=NCc1ccccc1	-17.9%	4.3%	-2.2%	7.8
CCOc1cccc2sc(N(CCCN(C)C)C(=O)c3ccc(S(=O)(=O)N(CC)Cc4ccccc4)cc3)nc12	13.6%	0.8%	0.1%	x
Fc1ccc(F)c(C2=NNC(=NCC3CCCO3)SC2)c1 (stereo unspecified)	-27.8%	-10.2%	-0.4%	-12.1
CCCCOC(=O)C1=C(C)Nc2nnnn2C1c1ccccc1Cl (stereo unspecified)	14.8%	-1.2%	-0.5%	-3.5
c1cncc(-c2noc(-c3ccco3)n2)c1	-36.2%	1.5%	0.5%	2.4
O=C(Cc1ccccc1)NN=C1CCCC1	x	-4.0%	-2.1%	x
COc1ccc(OC)c(CN(CCCN2CCOCC2)C(=O)Nc2ccccc2)c1	-8.9%	11.3%	-0.2%	-11.3
CCOC(=O)CCCSc1nc2sc3c(c2c(=O)[nH]1)CCC3	-5.8%	2.5%	1.1%	6.2
CCCCNC(=O)NNC(=O)c1ccoc1C	-28.1%	-6.6%	-3.1%	7.7
CCNC(=O)CN(CCc1ccccc1)S(=O)(=O)c1ccc(OC)cc1	-4.1%	15.7%	0.1%	-5.6
COc1ccc(C)cc1-n1nnnc1SCc1nc2ccccc2c(=O)[nH]1	7.6%	-21.9%	u	4.2
COc1ccc(NC(C)=O)cc1S(=O)(=O)Nc1ccccc1C(=O)NCCc1ccccc1	-46.4%	-18.5%	-0.8%	x
CN(c1ccc(Br)cc1)S(=O)(=O)c1ccc2[nH]cc(C(=O)NCCN3CCOCC3)c(=O)c2c1	2.5%	-13.5%	-3.5%	x
Cc1ccn(C(=O)c2ccc(NC(=O)C3CCCCC3)cc2)n1	-36.7%	12.7%	-1.6%	4.4
Cc1ccc(N2C(=O)C3C4C=CC(CNC(=S)Nc5ccc(F)cc5)(O4)C3C2=O)cc1 (stereo unspecified)	-0.8%	-3.4%	-0.4%	-2.4
CN(C)S(=O)(=O)c1cc(NC(=O)c2cc(=O)c3ccccc3o2)ccc1Cl	-4.4%	-11.0%	-3.0%	x
CCN(C(=O)Cc1cccs1)c1nnc(-c2cc(OC)c(OC)c(OC)c2)s1	-0.4%	-13.1%	-1.7%	-5.6
CN(C)S(=O)(=O)N1CCN(CC(=O)Nc2ccc(Br)cc2)CC1	-1.1%	-10.9%	-2.8%	x
COc1c(Cl)cnn(-c2ccccc2)c1=O	-0.8%	7.3%	-3.1%	8.3
COc1ccc(NC(=O)Cn2c(=O)n(CC(=O)NCc3ccco3)c(=O)c3ccccc32)cc1	-2.0%	3.0%	u	2.6

Screening results deposited in PubChem by National Center for Advancing Translational Sciences (NCATS).
